MARV entry inh – qHTS for inhibitors of binding or entry into cells for Marburg Virus | Marburg virus pseudotyped entry inhibition, cell reporter; control for the full effect not named in the record; about a third of the inactives were read at about 46 µM | Potency, µM (top dose mostly 37.8 µM), for inactives: at the top dose activity change, negative = inhibition, usual class: inhibitors | 300,000 compounds, 1.8% hits | AID 540276, 2011; active = well fitted inhibition curve with a large enough effect; inconclusive = small, poorly fitted or top-dose-only effect, or effect the other way; inactive = flat fitted curve, though single readings scatter; tested in HEK293 cells; about a fifth of its hits are not listed in these tables; note: % is set by controls: 0 for no effect and ±100 for the full control effect; luciferase read-out
Cruzain Triton – qHTS Assay for Promiscuous and Specific Inhibitors of Cruzain (with detergent); Cruzipain (Trypanosoma cruzi), P25779; purified cruzain, Z-FR-AMC fluorescence, 0.01% Triton; Potency, µM, without a hit: max response, negative = inhibition, actives largely listed as inhibitors; 200,000 compounds, 0.43% hits;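 note: plate controls were neutral wells for no effect and buffer without enzyme for full effect; nearly all actives have a fitted effect of over 40% in size; top concentration of the series not given in the record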
Target sequence (P25779 123-467 limits assumed): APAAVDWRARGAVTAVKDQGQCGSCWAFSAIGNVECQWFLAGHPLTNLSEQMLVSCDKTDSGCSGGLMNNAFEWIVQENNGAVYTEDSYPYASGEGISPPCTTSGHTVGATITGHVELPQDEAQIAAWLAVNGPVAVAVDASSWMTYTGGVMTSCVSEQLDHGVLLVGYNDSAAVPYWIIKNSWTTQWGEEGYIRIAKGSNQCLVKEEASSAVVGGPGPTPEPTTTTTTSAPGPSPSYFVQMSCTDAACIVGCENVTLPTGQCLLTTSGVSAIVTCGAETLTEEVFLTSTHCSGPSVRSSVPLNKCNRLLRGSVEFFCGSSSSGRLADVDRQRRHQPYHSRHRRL
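In this qHTS format, compounds are incubated with 1.5 nM cruzain for 15 min at room temperature before 2 uM Z-FR-AMC is added. Release of AMC is followed at 360/450 nm, and progress is taken as the 60 s fluorescence difference.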
SARS PLpro yeast – qHTS of Yeast-based Assay for SARS-CoV PLP | S. cerevisiae expressing SARS-CoV PLpro, growth rescue; control for the full effect not named in the record | Potency, µM (top dose mostly 32.9 µM), inactives show at the highest dose activity, positive = growth rescue | 330,000 compounds, 0.19% hits | AID 485353, 2010; active means well fitted rising curve with a large enough effect; inconclusive means small, poorly fitted or top-dose-only effect; inactive means no such curve, though single readings can be large or run the other way; note: 0% is about no effect; nearly all actives have a fitted effect of over 55% in size; growth read by luminescence after 48 h
2A StopGo – High Throughput Screening for Foot and Mouth Disease Virus Antivirals. human cells with a luciferase reporter of 2A StopGo recoding; control for the full effect not named in the record. Potency, µM (series often up to 57.9 µM), for the others: top-dose signal change, negative = less light. 410,000 compounds, 1.2% hits. AID 1159524, 2015; active = well fitted falling curve with a large enough effect; inconclusive = small, poorly fitted or top-dose-only effect; inactive = no such curve, though single readings can be large or run the other way; tested in HEK293T cells; note: % is set by controls: 0 for no effect and ±100 for the full control effect; nearly all actives have a fitted effect of over 45% in size; luciferase light after 4 h
LASV entry inh – qHTS for Inhibitors of binding or entry into cells for Lassa Virus; Lassa virus pseudotype entry inhibition, cell reporter; control for the full effect not named in the record; Potency, µM (highest dose often 37.9 µM), without a hit: at the top dose activity change, negative = inhibition, actives largely listed as inhibitors; 300,000 compounds, 1.2% hits; AID 540256, 2011; active means well fitted inhibition curve with a large enough effect; inconclusive means small, poorly fitted or top-dose-only effect, or effect the other way; inactive means flat fitted curve, though single readings scatter; tested in HEK293 cells; note: % is set by controls: 0 for no effect and ±100 for the full control effect; nearly all actives have a fitted effect of over 50% in size; luciferase read-out
Cruzain inh noDet – qHTS Assay for Promiscuous and Specific Inhibitors of Cruzain (without detergent) | Cruzipain (Trypanosoma cruzi), P25779 | purified cruzain, Z-FR-AMC fluorescence, no detergent | Potency, µM, for the others: max response, negative = inhibition, actives largely listed as inhibitors | 200,000 compounds, 2.3% hits | AID 1476, 2009;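 note: plate controls were enzyme without inhibitor for no effect and buffer without enzyme for full effect; nearly all actives have a fitted effect of over 40% in size; top concentration of the series not given in the record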
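Detergent-free condition (0.00005% Triton X-100) in acetate buffer pH 5.5 with DTT. 1.5 nM enzyme and compound were pre-mixed 15 min, then 2 uM Z-FR-AMC substrate added; reaction progress from fluorescence change between first and third reads (60 s).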
RE007 growth inh – qHTS Assay for Inhibitors of the HIV-1 protein Vpr; 360,000 compounds, 0.21% hits; S. pombe RE007 Vpr strain, BacTiter-Glo ATP luminescence, 24 h; control for the full effect not named in the record; Potency, µM (top dose mostly 92.2 µM), for inactives: at the highest dose activity change, negative = less growth; AID 651644, 2012; active = well fitted falling curve with a large enough effect; inconclusive = small, poorly fitted or top-dose-only effect; inactive = no such curve, though single readings can be large or run the other way;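 note: % is set by controls: 0 for no effect and ±100 for the full control effect; nearly all actives have a fitted effect of over 50% in size; the assay follows cell death caused by Vpr and the record does not say whether a fall means rescue or toxicity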
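Fission yeast RE007 carrying one integrated HIV-1 vpr copy, seeded at OD 0.01 in PMG+AL medium with 23 nL pinned compound. Grown 24 h at 30 degrees; viability read by BacTiter-Glo luminescence after 5 min.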
NS1 inh – qHTS Assay for Inhibitors of Influenza NS1 Protein Function. S. cerevisiae slowed by influenza A NS1, growth recovery by OD600. Potency, µM (top dose mostly 46.1 µM), inactives show at the top dose activity, positive = more growth. 270,000 compounds, 0.4% hits; active means well fitted rising curve with a large enough effect; inconclusive means small, poorly fitted or top-dose-only effect; inactive means no such curve, though single readings can be large or run the other way; note: nearly all actives have a fitted effect of over 50% in size
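Recovery from NS1-induced slow growth read by OD600 in budding yeast switched to galactose assay medium (pH 6.0, -URA) at 1:100 dilution. Compound 23 nl per well; the matching strain lacking NS1 serves as control.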
* marks the source's active call; other numbers are inactive results; ? = inconclusive; nt = no result given; & = joins results of further samples; [ ] = another dose, or the depositor's remark. Unless noted, calls come from the whole dose curve; as a rule, active = well fitted curve in the direction sought with a large enough effect; inconclusive = small, poorly fitted or top-dose-only effect, or another doubt; inactive = no such curve, though single readings can be large; an effect the other way counts as inactive or inconclusive. Potency is the fitted concentration of half-maximal effect.

smiles	MARV entry inh	Cruzain Triton	SARS PLpro yeast	2A StopGo	LASV entry inh	Cruzain inh noDet	RE007 growth inh	NS1 inh
Cn1c(=O)[nH]c(=O)c2c1nc(SCCN1CCOCC1)n2Cc1ccccc1	-5%[46.1 µM]	-1.0%	21%	-22%	-20%	6%	-22%	-1%
COc1ccccc1C1C2CCCCC2(O)CCN1CC(=O)Nc1ccccc1 (stereo unspecified)	?	2.9%	0%	-26%	2%	1%	0%	-1%
O=C(CN1C(=O)NC(Cc2ccccc2)C1=O)Nc1ccc(F)c(F)c1F (stereo unspecified)	6%	nt	-3%	-16%	-4%	nt	27%	nt
O=C(Cn1nc(-c2ccc(N3CCOCC3)c([N+](=O)[O-])c2)c2ccccc2c1=O)N1CCCCC1	?	-4.2%	0%	29%	-1%	?	14%	12%
CC(C)(C)c1ccc(S(=O)(=O)N2CCN(CC(=O)NC(=O)NC3CCCCC3)CC2)cc1	?	nt	-1%	-24%	-28%	nt	-17%	nt
CC(C)(C)C(=O)CN1CCN(S(=O)(=O)c2ccc(F)cc2)CC1	?	4.3%	?	-12%	-19%	8%	1%	7%
Cc1cccc(N2C(=O)NC(=O)/C(=C\c3cccn3-c3ccc(Cl)cc3)C2=O)c1	?	-1.9%	2%	10µM*	?	-29%	11%	?
Cc1cc(C)c(S(=O)(=O)N2CCN(CCO)CC2)c(C)c1	nt	2.1%	4%	0%	nt	-1%	-11%	4%
Cc1[nH]nc2c1/C(=N/O)CC(c1ccccc1)C2 (stereo unspecified)	-11%	2.9%	-7%	-8%	-2%	9%	4%[3.69 µM]	?
CCn1c(=O)c2cc(C(=O)Nc3cc(C)on3)sc2c2ccccc21	nt	4.0%	3%	-12%	nt	?	6%	-3%
CCN(CC(=O)Nc1ccc2c(c1)OCCO2)S(=O)(=O)c1ccc(C)cc1	-7%	-0.9%	8%	9%	0%	2%	22%	-7%
Cc1cc(C(F)(F)F)nc(SCC(=O)Nc2c(C)n(C)n(-c3ccccc3)c2=O)n1	7%[46.1 µM]	nt	-7%	-5%	9%[46.1 µM]	nt	-9%	-1%
Cc1ccc(-n2ncc3c(NCCCc4ccccc4)ncnc32)cc1	nt	1.2%	nt	32%[activator]	?	-6%	nt	nt
Cc1ccc(-c2c(C(=O)N/N=C/c3ccoc3)nnn2-c2nonc2N)cc1	-3%[46.1 µM]	nt	4%	4%	-2%[46.1 µM]	nt	0%	-1%
COC(=O)c1cn(CC(=O)NCc2cccs2)c2ccccc12	9%[46.1 µM]	5.2%	-4%	64%[activator]	?	-18%	14%	13%
COc1ccc(C)cc1NC(=O)C(=O)NCCc1csc2nc(-c3ccccc3F)nn12	nt	0.1%	nt	-14%	3%[46.1 µM]	-24%	nt	nt
Cc1cc(=O)n2[nH]c(-c3ccc(C(C)(C)C)cc3)cc2n1	?	-3.9%	0%&-20%	-23%	?	3%	17%	-1%&4%
COc1cc(C2NC(=O)CS2)cc(OC)c1OC (stereo unspecified)	4%	-1.3%	5%	-6%	-14%	2%	0%	5%
CSc1nc(-c2ccco2)nn1C(=O)c1ccc(Cl)cc1	nt	-1.8%	0%	nt	nt	-9%	nt	-55%
Oc1ccc(Cl)cc1C1=Nc2ccccc2N=C(c2ccco2)C1	-19%	0.9%	-7%	nt	-20%	6%	0%	10%
Cc1oc(-c2cccc(Cl)c2)nc1CN(C)C1CCOC1 (stereo unspecified)	13%[46.1 µM]	nt	-2%	14%	1%	nt	-22%	-7%
FC(F)(F)c1ccccc1CN1CCN(Cc2ccccc2)CC1	?	-5.0%	-1%	nt	-20%	0%	-4%	-36%
COC(=O)C(CC(C)C)NC(=O)C(Cc1ccccc1)NC(=O)C1CCCN1C(=O)OC(C)(C)C (stereo unspecified)	-28%[46.1 µM]	nt	-1%	-5%	-12%	nt	8%	3%
CC1CCCCN1C(=O)c1ccc(N2CC3CC(C2)c2cccc(=O)n2C3)c([N+](=O)[O-])c1 (stereo unspecified)	?	-2.5%	11%	-24%	-1%	3%	4%	3%
Cc1ccccc1NC(=O)CCC(=O)OCC(=O)c1cccc([N+](=O)[O-])c1	6%	nt	-1%	-2%	1%	nt	3%	5%
COCCN(CCOC)S(=O)(=O)c1ccc(C(=O)Nc2nc(-c3ccccc3)c(C(=O)c3ccccc3)s2)cc1	?	-0.5%	-1%	-11%	-10%	?	-16%	20%
Cc1cccc(CSCCNC(=O)Nc2ccccc2)c1	-17%	-6.7%	-39%	49%[activator]	-23%	-5%	-3%	-41%
CCCCCn1cc2c(c1-c1ccc(Cl)cc1)c(=O)n(C)c(=O)n2C	13%[46.1 µM]	-1.3%	nt	0%	?	-2%	nt	nt
CN1CCc2c(sc(N)c2C(N)=O)C1	6%	-9.1%	0%	-1%	-2%	-12%	-11%	9%
CCC(C)c1ccc(O)c(NC(=O)c2cccnc2)c1 (stereo unspecified)	-1%[46.1 µM]	2.2%	-26%	13%	1%	-2%	1%	-107%
CCCCn1c(N)c(N(CCOC)C(=O)COc2ccc(Cl)cc2)c(=O)[nH]c1=O	?	nt	0%	8%	-1%[46.1 µM]	nt	0%	nt
CC1CCN(c2nc3ccc(C(=O)NC(C)C)cc3s2)CC1	2%[46.1 µM]	-3.4%	nt	?	26%[46.1 µM]	20%	nt	nt
Cc1ccc2nc(NCCCO)[nH]c2c1	?	nt	nt	16%	?	nt	6%	nt
COc1ccc(-c2ccc(CCC(=O)O)n2NC(=O)c2cccs2)cc1	?	-1.8%	21%	-11%	7%	1%	2%	6%
COc1ccc(C(=O)Nc2cccc(C(C)=O)c2)cc1OC	?	0.6%	-1%	65%[activator]	22%	-3%	7%	-11%
O=[N+]([O-])c1ccc2c(c1)C(N1CCOCC1)/C(=C/COc1ccc(F)cc1)O2 (stereo unspecified)	?	-4.6%	-23%	?	-26%	-3%	-13%	-9%
Cc1ccc(-n2ncc(C(=O)NCc3cccs3)c2C2CCN(C(=O)OC(C)(C)C)CC2)cc1	nt	-11%	nt	-3%	nt	5%	nt	nt
Cn1c(-c2nonc2NC(=O)c2ccc(C(C)(C)C)cc2)nc2ccccc21	-2%	1.2%	-13%	nt	nt	?	nt	5%
Cc1cccc(C(c2sc3nc(-c4ccco4)nn3c2O)N2CCN(c3ccccc3F)CC2)c1 (stereo unspecified)	nt	0.2%	nt	29%	-1%[46.1 µM]	-21%	nt	nt
O=C(C1CCN(CCc2ccccc2)CC1)N1CCOCC1	7%	nt	nt	-2%	7%	nt	-16%	nt
CCc1ccccc1NC(=O)CSc1nc2n[nH]c(C)c2c(=N)n1-c1cccc(OC)c1	?	-5.1%	18%	?	-13%	23%	2%	1%
N/C(=N\OS(=O)(=O)c1ccccc1)c1cccnc1	?	-2.6%	15%	4%	6%	3%	-4%	24%
Cc1cccc(NC(=S)NCc2ccc3[nH]c4c(c3c2)CCCC4)c1	?	-3.5%	-28%	0%	21µM*	?	-10%	?
O=C(Nc1nccs1)[C@@H]1CCCN1C(=O)c1cccs1	25%[14.2 µM]	nt	1%	-2%	5%	nt	6%	3%
COc1ccc(OCC(=O)NNC(=O)c2cccc(C)c2)cc1	13%[46.1 µM]	nt	-1%	0%	0%[46.1 µM]	nt	-6%	nt
CN(CC(=O)Nc1ccc(Cl)c(Cl)c1)C(=O)CN1C(=O)NC2(CCCC2)C1=O	-24%[46.1 µM]	nt	-1%	-26%	-16%	nt	2%	nt
COc1ccc(N(Cc2ccccc2)S(=O)(=O)c2cccc(C(=O)Nc3ccccn3)c2)cc1	?	nt	6%[6.58 µM]	4%	13µM*	nt	2%	nt
Cc1onc(-c2ccc(Br)cc2)c1C(=O)Nc1ccc(Br)cc1F	nt	0.2%	nt	4%	23%[46.1 µM]	-27%	nt	nt
O=C(NCc1ccc(CNC(=O)c2ccco2)cc1)c1ccco1	nt	nt	?	-9%	nt	nt	14%	7%
O=C(NC(=S)N1CCN(c2ccc(Cl)cc2[N+](=O)[O-])CC1)c1ccco1	0%	-17%	-65%	-9%	-16%	-13%	-1%	-24%
O=C1c2ccccc2-c2nc3ccccc3nc21	-4%	-1.8%	-16%	23%	26%	-10%	?	-120%
COC(=O)CSc1nnc(COc2ccc3ccccc3c2)o1	-2%[46.1 µM]	nt	-3%	-9%	9%[46.1 µM]	nt	-2%	-22%
COc1ccc(OC)c(N(C(=O)c2ccco2)C(C(=O)NC2CCCC2)c2ccc(N3CCOCC3)cc2)c1 (stereo unspecified)	?	nt	0%	5%	10%	nt	-6%	0%
Cc1c(C(=O)C(=O)NCCCn2ccnc2)c2ccccc2n1C	2%[46.1 µM]	nt	0%	13%	1%	nt	11%	nt
CCCn1c(NCc2ccco2)nc2ccccc21	-1%	0.1%	-1%	7%	-18%[14.3 µM]	-10%	-6%	-1%
Cc1ccc(NC2CCCN(C(=O)c3ccc4nccnc4c3)C2)cc1C (stereo unspecified)	7%	nt	0%	-9%	-8%	nt	3%	6%

(listing goes on)
smiles	MARV entry inh	Cruzain Triton	SARS PLpro yeast	2A StopGo	LASV entry inh	Cruzain inh noDet	RE007 growth inh	NS1 inh
COc1ccc(Cl)cc1NC(=S)N1CC(C)OC(C)C1 (stereo unspecified)	nt	nt	6%	-10%	nt	nt	-19%	-9%
S=C(CN1CCCC1=S)N1CCOCC1	14%	nt	nt	-15%	5%	nt	5%	nt
O=C(COC(=O)CNC(=O)c1cccc([N+](=O)[O-])c1)Nc1nc2ccccc2s1	?	-26%	-5%	17%	8%	?	nt	13%
COc1ccc(C(=O)CSc2nnc(C(CO)NC(=O)c3ccc(OC)cc3)n2C)cc1 (stereo unspecified)	13%	-0.9%	6%	-8%	6%	1%	-5%	-3%
CCc1ccc(NC(=O)C2CCCN(S(=O)(=O)c3cccnc3)C2)cc1 (stereo unspecified)	nt	nt	?	-20%	nt	nt	-3%	16%
CCC1COCCS(=O)(=O)N1Cc1ccc(Cl)cc1 (stereo unspecified)	nt	nt	-16%	-16%	nt	nt	8%	-20%

Screens (PubChem BioAssay)
